High-throughput results: PubChem BioAssay, National Center for Advancing Translational Sciences (NCATS)
StopGo reporter – lowers the luciferase signal of an FMDV 2A StopGo reporter. human cells with a luciferase reporter of 2A StopGo recoding; control for the full effect not named in the record. Potency, µM (series often up to 57.9 µM), for the others: top-dose signal change, negative = less light. hit rate 1.2% among 410,000; active = well fitted falling curve with a large enough effect; inconclusive = small, poorly fitted or top-dose-only effect; inactive = no such curve, though single readings can be large or run the other way; tested in HEK293T cells; also: nearly all actives have a fitted effect of over 45% in size; luciferase light after 4 h
RE007 growth inh – less growth of the S. pombe RE007 Vpr strain; Potency, µM (series often up to 92.2 µM), inactives show top-dose activity change, negative = less growth; hit rate 0.21% among 360,000; AID 651644; S. pombe RE007 Vpr strain, BacTiter-Glo ATP luminescence, 24 h; control for the full effect not named in the record; active = well fitted falling curve with a large enough effect; inconclusive = small, poorly fitted or top-dose-only effect; inactive = no such curve, though single readings can be large or run the other way;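 also: nearly all actives have a fitted effect of over 50% in size; the assay follows cell death caused by Vpr and the record does not say whether a fall means rescue or toxicity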
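Fission yeast strain RE007, carrying one chromosomally integrated HIV-1 vpr copy, was seeded at OD 0.01 in PMG+AL medium with 23 nL pinned compound. After 24 h at 30 °C and 99% humidity, viability was read by BacTiter-Glo luminescence.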
Active calls of the source: *; ? = inconclusive; [ ] = dose if it differs, or a comment. % is scaled to controls: 0 for no effect and ±100 for the full control effect; potency is read from the fitted curve at half-maximal effect. Some of the compounds tested. The share of hits here may be higher or lower than overall.

Results follow in this order: RE007 growth inh	StopGo reporter
1) COCCNC(=O)C1(C)CCN(C(=O)c2ccc(OC)c(F)c2)C1 (stereo not drawn)
    8%	-18%
2) CCc1nc2c(OCCC3CCCCC3)cccn2c1N(C)C(=O)c1ccccc1F
    1%	-22%
3) O=C(Cc1cccc(NC(=O)C2CCN(C(=O)CCc3ccccc3)CC2)c1)Nc1cccc(C(=O)N2CCCCC2)c1
    -3%	0%
4) CCOC(=O)C1=CCN(S(=O)(=O)c2ccccc2Cl)C1c1ccc(Cl)c(Cl)c1 (stereo not drawn)
    -10%	?
5) COC(=O)c1c(C)cc(O)c(C=O)c1O
    ?	-20%
6) O=c1c(Oc2ccccc2)coc2cc(O)cc(O)c12
    -19%	6%
7) COc1ccc(C2C3C=CC(C3)C2C(=O)O)cc1 (stereo not drawn)
    5%	-22%
8) COc1ccc(CN2CCC(C(=O)NC(C)c3cccc4ccccc34)CC2)cc1 (stereo not drawn)
    -12%	2%
9) COC(C[C@@H]1O[C@H]1C(=O)[C@@H](C)OCc1ccccc1)OC
    -6%	0%
10) CC1(C(=O)Nc2ccc3ccccc3c2)CCC(=O)N1CCc1c[nH]c2ccccc12 (stereo not drawn)
    5%	-7%
11) COCCCn1cc(CN2CC(N3CCN(CCN(C)C)CC3)CS2(=O)=O)nn1 (stereo not drawn)
    2%	-15%
12) Cc1ccc(NC(=O)C2(C)CCN2Cc2ccc(OC(C)C)cc2)cc1 (stereo not drawn)
    4%[18.4 µM]	-9%
13) COc1ccc(C(C(=O)NC(C)(C)C)n2c(COc3ccc(C)cc3)nc3ccccc32)cc1 (stereo not drawn)
    -6%	-12%
14) CN(Cc1ccccc1)C(=O)c1csc(COCCO)n1
    6%	-9%
15) Cc1ccccc1-c1cccc([C@@H]2C[C@H]3[C@H](CON3C)CN2C(=O)C(C)(C)C)c1
    -5%	-21%
16) O=C(NCc1ccco1)c1ccc(-c2ccc(F)c(F)c2)c2ccoc12
    26%	10%
17) COCc1cccc(-c2csc(C(C)(O)c3cccc(F)c3)n2)c1 (stereo not drawn)
    19%	?
18) COc1ccc(S(=O)(=O)Nc2cccc(S(=O)(=O)N(C)C)c2)cc1[N+](=O)[O-]
    -6%	43%[activator]
19) CC(C)c1cc(C(=O)NCCc2cccs2)c(N)s1
    -13%	31%[activator]
20) CC(C)c1cc(NCCN2CCOCC2)n2c(nc3ccccc32)c1C#N
    -12%	-20%
21) O=C(NCCc1ccccc1)c1ccc2c(c1)S(=O)(=O)c1ccccc1C2=O
    9%	-1%
22) Nc1c(N(CCC2=CCCCC2)C(=O)COc2ccc(F)cc2Cl)c(=O)[nH]c(=O)n1Cc1ccccc1
    -6%	?
23) COc1cccc(CN(C)C(=O)c2ccc(Cl)c(S(=O)(=O)N3CCCCCC3)c2)c1OC
    5%	0%
24) COc1cc(-c2cc3nc(NC4CCCCC4)ccn3n2)cc(OC)c1OC
    -7%[18.4 µM]	-29%
25) COC(=O)[C@@]12C[C@@H](CC(=O)NCc3ccc(C)o3)C(=O)N(CCc3ccc(OC)c(OC)c3)C1=CCC(C)(C)C2
    8%	-7%
26) Cc1ccc(N2C(=O)N(CC(=O)N3CCc4ccccc43)C(=O)C2C)cc1 (stereo not drawn)
    12%	6%
27) O=C1N(Cc2ccccc2)c2ccc(Br)cc2[C@]12C[C@H](O)CO2
    0%	-11%
28) Cc1cc(Br)cn2c(CC(C)(C)C)c(-c3cccc(Cl)c3)nc12
    22%	-23%
29) CCCCn1c(O)c2n(c1=O)Cc1ccccc1N=C2c1ccc(OC)cc1
    -10%	-12%
30) Cc1cccc(C)c1OCC(=O)Nc1cccc(S(=O)(=O)N2CCCCCC2)c1
    16%	-14%

Record cards, from the list above:
Cc1ccc(N2C(=O)N(CC(=O)N3CCc4ccccc43)C(=O)C2C)cc1 (stereo not drawn) as listed: RE007 growth inh: 12%; StopGo reporter: 6%
COc1ccc(C(C(=O)NC(C)(C)C)n2c(COc3ccc(C)cc3)nc3ccccc32)cc1 (stereo not drawn) as listed: RE007 growth inh: -6%; StopGo reporter: -12%
COCCCn1cc(CN2CC(N3CCN(CCN(C)C)CC3)CS2(=O)=O)nn1 (stereo not drawn) as listed: RE007 growth inh: 2%; StopGo reporter: -15%

Going on with the list.
Results follow in this order: RE007 growth inh	StopGo reporter
31) Cc1cc2nc(C(C)(C)C)c(Cc3cccc(Cl)c3)n2c(C)c1Br
    1%	-17%
32) CN1C[C@@H](CO)O[C@@H](n2cnc3c(N4CCN(CCO)CC4)ncnc32)C1
    -13%	-21%
33) CN1CCN(C(=O)c2cc3c(c(-c4cccc(-c5cccnc5)c4)n2)[C@H](CCO)N(C(=O)CC2CC2)C3)CC1
    -13%	-15%
34) COCCN1C[C@@H](CO)O[C@@H](n2cnc3c(NCC(C)C)ncnc32)C1
    -7%	-16%
35) C[C@H]1CN([C@@H](C)CO)C(=O)CCCn2cc(nn2)CO[C@@H]1CN(C)C(=O)Cc1ccccc1
    23%	1%
36) COC1=CC(=O)OC(c2ccc(C#N)cc2)C1 (stereo not drawn)
    -2%	-2%
37) Cc1cc(CC(=O)O)c2oc(-c3ccoc3)cc(=O)c2c1
    -9%	-2%
38) O=C(NCc1ccccc1)c1ccc(-c2cn[nH]c2)c2ccoc12
    21%	54%[activator]
39) COCCNC(=O)c1cc(-c2ccccc2)nn1CC1CC(c2cccnc2)=NO1 (stereo not drawn)
    0%	-6%
40) CC1(C(=O)Nc2cccnc2)Cc2c(-c3ccc4c(c3)OCO4)ccnc2O1 (stereo not drawn)
    14%	?
41) CC1=C(C(=O)N2CCOCC2)CC(CC(=O)NCCCCc2ccccc2)C(=O)N1CCC1=CCCCC1 (stereo not drawn)
    -11%	0%
42) CC(C)CNC(=O)c1cccc2c(-c3cccnc3)coc12
    -12%	14%
43) CCN(CC(=O)NCc1cccs1)C(=O)c1cccc(S(=O)(=O)Nc2ccc(F)cc2)c1
    7%	56%[activator]
44) C[C@H](CO)N1C[C@H](C)[C@@H](CN(C)S(=O)(=O)c2cn(C)cn2)OCc2cnnn2CCCC1=O
    7%	0%
45) CCCS(=O)(=O)NC(=O)C1(C)CCCN(C(=O)c2oc3ccccc3c2C)C1 (stereo not drawn)
    4%	39%[activator]
46) C[C@@H]1CCCCO[C@@H](CN(C)C(=O)Nc2ccc3c(c2)OCO3)[C@@H](C)CN([C@H](C)CO)C(=O)c2cc(N(C)C)ccc2O1
    22%	-11%
47) CC(C)C(C(=O)NCc1ccccc1)N(C)Cc1ccc(Cl)c(Cl)c1 (stereo not drawn)
    10%	-12%
48) Cc1cccc(C(=O)OCC(=O)Nc2sccc2C(N)=O)c1C
    -7%	-13%
49) CC(C)C[C@H]1CNC(=S)N1C[C@H]1CCCN1C[C@H](CC(C)C)N1C[C@H](Cc2ccccc2)N(CCc2ccccc2)C1=S
    -5%	-28%
50) COc1cc(CN(C)C(=O)C2CCN(S(=O)(=O)c3cccs3)CC2)ccc1OC(F)F
    9%	?
51) O=C(Nc1cccc(Oc2ccccc2)c1)C1Cc2c(-c3cccc(F)c3)ccnc2O1 (stereo not drawn)
    0%	-15%
52) Cn1nc(C(C)(C)C)cc1C(=O)N1CCCCC1c1cc(C(=O)NCc2ccc(F)cc2)no1 (stereo not drawn)
    2%[18.4 µM]	?
53) COc1ccc(NC(=O)C(c2ccc(C#N)cc2)n2c(=O)c(-c3cc4ccccc4[nH]3)nc3ccccc32)cc1 (stereo not drawn)
    1%	8%
54) COc1ccccc1NC(=O)Cc1nc(=O)[nH]c(=O)[nH]1
    8%	-10%
55) O=C(O)C1C=CC(C(=O)O)c2ccccc21 (stereo not drawn)
    -1%	-3%
56) Cc1nnc(Cc2ccco2)c2n[nH]c(C)c12
    8%	-10%
57) CC(C)CCN1C(=O)CSCC1(C)C(=O)Nc1ccc2c(c1)OCCO2 (stereo not drawn)
    12%	-16%
58) CC1(C(=O)Nc2ccc3c(c2)OCCO3)CCC(=O)N1CCOc1ccccc1 (stereo not drawn)
    2%	2%
59) COc1ccc(SCC(O)Cn2c3ccccc3c3ccccc32)c(OC)c1 (stereo not drawn)
    4%	-16%
60) CCc1nc2c(OCc3ccccc3)cccn2c1N(C)C(C)=O
    -8%	-23%
61) O=[N+]([O-])c1cc2ccccc2c(O)c1O
    -7%	0%
62) C[C@H](CO)N1C[C@H](C)[C@H](CN(C)C(=O)Nc2ccc(C(F)(F)F)cc2)Oc2ncc(Br)cc2C1=O
    -9%	-2%
63) CC1(C(=O)N2CCN(C(=O)c3ccco3)CC2)CCN1Cc1ccccc1OC(F)F (stereo not drawn)
    8%[18.4 µM]	-4%
64) CCCCn1c(N)c(N(CCOC)C(=O)c2oc3c(Cl)cccc3c2C)c(=O)[nH]c1=O
    -28%	?
65) Cc1ccc(S(=O)(=O)N2CCCCC2)cc1NC(=O)COC(=O)CN1C(=O)NC2(CC(C)CC(C)(C)C2)C1=O (stereo not drawn)
    5%	-17%
66) CC(=O)NC(C)(CC(=O)c1ccccc1)c1ccccc1 (stereo not drawn)
    -9%	-14%
67) Cc1ccc2c(=O)n3c(nc2c1)C(C)NC(=O)c1cccnc1-3 (stereo not drawn)
    2%	-21%
68) CC(=O)N1CCCC(C)(C(=O)Nc2cccc(OC(C)C)c2)C1 (stereo not drawn)
    6%	-9%
69) COCCNC(=O)c1[nH]c(C(F)(F)F)nc1-c1ccccc1
    9%	-20%
70) Cc1cccc(NS(=O)(=O)c2ccc(C)c(C(=O)NC3CCN(Cc4ccccc4)CC3)c2)c1
    6%	-26%
71) COCCNC(=O)C1(C)CCN(C(=O)/C=C/c2ccccc2)C1 (stereo not drawn)
    -9%	-20%
72) CC1(C)C2CC[C@]3(C)C(CC=C4[C@@H]5C[C@@](C)(CO)[C@@H](O)C[C@]56C[C@@H](OC6=O)[C@]43C)[C@@]2(C)CC[C@@H]1O (stereo partly drawn)
    4%	-16%
73) Cn1c(N)c(C(=O)COC(=O)C2Cc3ccccc3CN2S(C)(=O)=O)c(=O)n(C)c1=O (stereo not drawn)
    -7%	-18%
74) Clc1ccc(CCC(Cn2ccnc2)Sc2c(Cl)cccc2Cl)cc1 (stereo not drawn)
    -12%[18.4 µM]	?
75) CCc1nc2c(OCc3ccccc3)cccn2c1N(C)C(=O)C(C)C
    -22%	-11%
76) C#Cc1ccc2c(c1)COc1c3ccccc3nn1-2
    -7%	15%
77) Cc1ccc2nc(-c3ccco3)c(Cc3cccc(F)c3)n2c1
    ?	19%
78) O=C1C(=Cc2cn(-c3ccccc3)nc2-c2ccc(OCc3ccc(Cl)cc3)cc2)SC(=S)N1CCS(=O)(=O)O
    5%	-13%
79) Cn1c(=O)c2cc(NC(=O)Nc3cccnc3)ccc2n1-c1ccc(C(C)(C)C)cc1
    -6%	-17%
80) COC(=O)[C@H](CC(C)C)NS(=O)(=O)c1ccc(F)cc1Br
    -2%	-3%
81) COc1ccccc1Cc1c(-c2ccco2)nc2ccc(C)cn12
    -27%	3%
82) CN(C)c1cccc(-c2cc(Nc3ccc(C(C)(C)C)cc3)ncn2)c1
    -6%	38%[activator]
83) Cn1c(/N=C(\N)c2ccccc2)nc2ccccc21
    -20%	27%
84) CCN1CCN(c2ccc(S(=O)(=O)N3CCCCC3)cc2NC(=O)c2ccc(C)c(C)c2)CC1
    1%	-4%
85) O=C1NC(Cc2ccc(O)cc2)c2nc3ccc(Cl)cc3c(=O)n2-c2cc3ccccc3cc21 (stereo not drawn)
    12%	?
86) COc1ccc(C(CNC(=O)CN2C(=O)NC(C)(c3ccc4ccccc4c3)C2=O)N2CCCC2)cc1 (stereo not drawn)
    -14%	-14%
87) O=C1NC[C@H](Cc2ccccc2)N(C[C@H]2CCCN2C[C@H](Cc2ccccc2)N2C[C@H](Cc3ccc(O)cc3)N(CC3CCCCCC3)C(=O)C2=O)C1=O
    14%	0%
88) Cc1ccccc1-n1c(-c2ccc(Br)o2)n[nH]c1=S
    -3%	-22%
89) COC(=O)C[C@H]1C=C[C@@H](NC(=O)NC2CCCCC2)[C@@H](CO)O1
    -5%	-20%
90) CCN(CC(=O)NC(C)(C)C)C(=O)c1cccc(S(=O)(=O)N2CC3(C)CC2CC(C)(C)C3)c1 (stereo not drawn)
    14%	-8%

The list goes on.
Results follow in this order: RE007 growth inh	StopGo reporter
91) c1ccc(C2(NC3=NCCO3)CCCCC2)cc1
    -25%	-3%
92) CCCCC[C@@H](C)N1C[C@H](COCc2ccccc2)Oc2cc(N3CCC[C@@H]3COC)ccc2S1(=O)=O
    -1%	39%[activator]
93) CCOC(=O)c1cnn2c(SC)ncnc12
    -1%	0%
94) Cn1c(=O)c2cc(NC(=O)NCc3ccc(Cl)cc3Cl)ccc2n1Cc1ccc(F)cc1
    0%	?
95) OCc1cccc(-c2csc(C(O)(c3ccccc3)C(F)(F)F)n2)c1 (stereo not drawn)
    4%	28%
96) Nc1ncnc2c1ncn2[C@@H]1O[C@H](CNC(=O)OC[C@@H](N)Cc2ccccc2)[C@@H](O)[C@H]1O
    -2%	-4%
97) COc1cc(/C=N/NC(=O)c2ccc3nc[nH]c3c2)cc(OC)c1OC(C)=O
    -9%	-26%
98) Cc1cccc(C)c1-n1nnnc1C(c1ccnc2ccccc12)N1CCC2(CC1)C(=O)NCN2c1ccccc1 (stereo not drawn)
    2%	-27%
